Cruzain inh noDet = cruzain (T. cruzi) inhibition without detergent | P25779 | purified cruzain, Z-FR-AMC fluorescence, no detergent | Potency, µM, for inactives: max response, negative = inhibition, hits mostly inhibitors | 2.3% of 200,000 active; active means well fitted curve in the direction sought with a large enough effect; inconclusive means small, poorly fitted or top-dose-only effect, or another doubt; inactive means no such curve, though single readings can be large; an effect the other way counts as inactive or inconclusive;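 further: plate controls were enzyme without inhibitor for no effect and buffer without enzyme for full effect; nearly all actives have a fitted effect of over 40% in size; top concentration of the series not given in the record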
Target sequence (P25779 123-467 limits assumed): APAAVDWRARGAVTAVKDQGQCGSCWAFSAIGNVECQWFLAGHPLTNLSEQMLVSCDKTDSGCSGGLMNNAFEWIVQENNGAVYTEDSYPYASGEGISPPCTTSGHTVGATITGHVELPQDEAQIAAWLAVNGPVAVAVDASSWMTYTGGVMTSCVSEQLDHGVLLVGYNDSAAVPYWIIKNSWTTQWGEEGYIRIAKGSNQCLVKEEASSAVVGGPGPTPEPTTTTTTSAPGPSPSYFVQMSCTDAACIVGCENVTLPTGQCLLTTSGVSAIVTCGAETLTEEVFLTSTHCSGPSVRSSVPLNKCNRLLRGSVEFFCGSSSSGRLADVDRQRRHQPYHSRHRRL
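Purified cruzain at 1.5 nM, pre-incubated 15 min with compound at room temperature in 100 mM sodium acetate pH 5.5, 5 mM DTT, 0.00005% Triton X-100. Reaction started with 2 uM Z-FR-AMC; AMC fluorescence increase over 60 s gives rate.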
Marburg entry inh = Marburg virus entry inhibition | 1.8% of 300,000 active | Marburg virus pseudotyped entry inhibition, cell reporter; control for the full effect not named in the record; about a third of the inactives were read at about 46 µM | AID 540276 | Potency, µM (series often up to 37.8 µM), inactives show top-dose activity change, negative = inhibition, most hits filed as inhibitors; active = well fitted inhibition curve with a large enough effect; inconclusive = small, poorly fitted or top-dose-only effect, or effect the other way; inactive = flat fitted curve, though single readings scatter; tested in HEK293 cells; about a fifth of its hits are not listed in these tables; further: on the % scale 0 is the no-effect control and ±100 the full control effect; luciferase read-out
LASV entry inh = inhibitors of Lassa virus binding or cell entry; AID 540256; 1.2% of 300,000 active; Lassa virus pseudotype entry inhibition, cell reporter; control for the full effect not named in the record; Potency, µM (top dose mostly 37.9 µM), for inactives: top-dose activity change, negative = inhibition, actives largely listed as inhibitors; active means well fitted inhibition curve with a large enough effect; inconclusive means small, poorly fitted or top-dose-only effect, or effect the other way; inactive means flat fitted curve, though single readings scatter; tested in HEK293 cells; further: on the % scale 0 is the no-effect control and ±100 the full control effect; nearly all actives have a fitted effect of over 50% in size; luciferase read-out
Cruzain Triton = inhibitors of Trypanosoma cruzi cruzain with detergent; P25779; Potency, µM, for inactives: max response, negative = inhibition, hits mostly inhibitors; purified cruzain, Z-FR-AMC fluorescence, 0.01% Triton; 0.43% of 200,000 active; AID 1478; active means well fitted curve in the direction sought with a large enough effect; inconclusive means small, poorly fitted or top-dose-only effect, or another doubt; inactive means no such curve, though single readings can be large; an effect the other way counts as inactive or inconclusive;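 further: plate controls were neutral wells for no effect and buffer without enzyme for full effect; nearly all actives have a fitted effect of over 40% in size; top concentration of the series not given in the record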
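Steps: dispense cruzain (1.5 nM final) in acetate buffer pH 5.5 with DTT and 0.01% Triton X-100; pin-transfer compounds; incubate 15 min RT; add Z-FR-AMC (2 uM final); read fluorescence every 30 s, using the 60 s intensity change.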
StopGo reporter = lowers the luciferase signal of an FMDV 2A StopGo reporter | Potency, µM (series often up to 57.9 µM), for inactives: at the highest dose signal change, negative = less light | human cells with a luciferase reporter of 2A StopGo recoding; control for the full effect not named in the record | 1.2% of 410,000 active; active = well fitted falling curve with a large enough effect; inconclusive = small, poorly fitted or top-dose-only effect; inactive = no such curve, though single readings can be large or run the other way; tested in HEK293T cells; further: on the % scale 0 is the no-effect control and ±100 the full control effect; nearly all actives have a fitted effect of over 45% in size; luciferase light after 4 h
SARS PLpro yeast = SARS-CoV PLP inhibition in yeast | S. cerevisiae expressing SARS-CoV PLpro, growth rescue; control for the full effect not named in the record | Potency, µM (titrated, usually from 32.9 µM), without a hit: at the top dose activity, positive = growth rescue | AID 485353 | 0.19% of 330,000 active; further: 0% is about no effect; nearly all actives have a fitted effect of over 55% in size; growth read by luminescence after 48 h
RE007 growth inh = less growth of the S. pombe RE007 Vpr strain. S. pombe RE007 Vpr strain, BacTiter-Glo ATP luminescence, 24 h; control for the full effect not named in the record. 0.21% of 360,000 active. AID 651644. Potency, µM (top dose mostly 92.2 µM), for the others: at the highest dose activity change, negative = less growth; active = well fitted falling curve with a large enough effect; inconclusive = small, poorly fitted or top-dose-only effect; inactive = no such curve, though single readings can be large or run the other way;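 further: on the % scale 0 is the no-effect control and ±100 the full control effect; nearly all actives have a fitted effect of over 50% in size; the assay follows cell death caused by Vpr and the record does not say whether a fall means rescue or toxicity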
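Fission yeast RE007 carrying one integrated HIV-1 vpr copy, seeded at OD 0.01 in PMG+AL medium with 23 nL pinned compound. Grown 24 h at 30 degrees; viability read by BacTiter-Glo luminescence after 5 min.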
NS1 function inh = influenza NS1 inhibition; 0.4% of 270,000 active; S. cerevisiae slowed by influenza A NS1, growth recovery by OD600; Potency, µM (top dose mostly 46.1 µM), inactives show at the top dose activity, positive = more growth; further: actives are rising curves; nearly all actives have a fitted effect of over 50% in size
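OD600 was taken as the measure of yeast growth restored by compound in an NS1-expressing S. cerevisiae strain. Cells had been washed out of glucose medium and diluted 1:100 into galactose -URA medium, pH 6.0.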
Numbers without * were called inactive; & = joins results of further samples; [ ] = another dose, or the depositor's remark. Unless noted, the call rests on the fitted dose curve; in most records, active means well fitted rising curve with a large enough effect; inconclusive means small, poorly fitted or top-dose-only effect; inactive means no such curve, though single readings can be large or run the other way. Potency means the concentration at half of the fitted maximal effect.

`NC(=O)CC(NC(=O)Cc1ccc(Br)cc1)c1ccc(NCCc2ccc(Cl)cc2)c([N+](=O)[O-])c1` (stereo not given) gave StopGo reporter -15.6%, SARS PLpro yeast 0.9%, RE007 growth inh 2.7% and NS1 function inh -6.8%.
For O=C(Nc1ccccc1Cc1ccccc1)c1ccccc1NS(=O)(=O)c1ccc(Cl)s1 the results were Cruzain inh noDet inconclusive, Marburg entry inh inconclusive, LASV entry inh inconclusive, Cruzain Triton -21.3%, StopGo reporter inconclusive, SARS PLpro yeast -39.1%, RE007 growth inh -8.6% and NS1 function inh -35.1%.
O=C(Nc1ccccc1)C1CCN(C(=O)c2ccccc2)CC1 was read as Cruzain inh noDet -1.0%, Marburg entry inh 12.5%, LASV entry inh 0.9%, Cruzain Triton 7.8%, StopGo reporter -18.9%, SARS PLpro yeast -0.8%, RE007 growth inh 13.2% and NS1 function inh 0.4%.
For Cc1onc(-c2ccccc2Cl)c1C(=O)Nc1ccc(-c2nnc3n2CCCCC3)cc1 the results were Cruzain inh noDet 0.2%, Marburg entry inh 13.2%[46.1 µM], LASV entry inh -2.1%, Cruzain Triton -0.2%, StopGo reporter -2.4%, SARS PLpro yeast 1.0%, RE007 growth inh 7.7% and NS1 function inh -2.9%.
`Cc1nnc(SCCCn2c(N3CCCCC3)nc3c2c(=O)[nH]c(=O)n3C)s1` gave Cruzain inh noDet -2.2%, Marburg entry inh -1.7%&-1.7%, LASV entry inh -26.0%, Cruzain Triton 0.4%, StopGo reporter -16.6%, SARS PLpro yeast 6.7%, RE007 growth inh 3.9% and NS1 function inh -7.1%.
CCOC(=O)c1ccccc1NC(=O)c1cc2ccc3cccnc3c2[nH]1 was read as Cruzain inh noDet -7.2%, LASV entry inh inconclusive, Cruzain Triton -4.3% and StopGo reporter -6.4%.
Screening Cc1ccc2c(c1)CNc1ccccc1O2 returned Cruzain inh noDet -3.1%, Marburg entry inh 14.6%, LASV entry inh -2.1%, Cruzain Triton -5.2%, StopGo reporter 41.7%[activator], SARS PLpro yeast -1.3%, RE007 growth inh -18.1% and NS1 function inh 3.1%.
`COCCCN1C(=O)C(=O)/C(=C(/O)c2ccc(OC(C)C)c(C)c2)C1c1ccncc1` (stereo not given) gave Cruzain inh noDet 2.3%, Marburg entry inh -0.4%, LASV entry inh -5.3%, Cruzain Triton -2.4%, StopGo reporter 8.4%, SARS PLpro yeast 1.5%, RE007 growth inh 0.4% and NS1 function inh -6.3%.
`O=C(NCc1ccncc1)c1ccccc1Nc1ccc(SC(F)F)cc1` gave Marburg entry inh inconclusive, LASV entry inh -29.3%[46.1 µM], StopGo reporter 0.9%, SARS PLpro yeast -9.6%, RE007 growth inh -20.1% and NS1 function inh -65.0%.
For COCCNC(=O)C1c2cc(OC)c(OC)cc2C(=O)N(C)C1c1cccnc1 (stereo not given) the results were Cruzain inh noDet 6.8%, Marburg entry inh 2.6%&2.6%, LASV entry inh 12.5%, Cruzain Triton 4.6%, StopGo reporter -13.7%, SARS PLpro yeast -1.9%, RE007 growth inh 5.4% and NS1 function inh -9.7%.
`CC(C)CCNC(=O)c1ccc2c(Cl)c3c(nc2c1)CCC3` gave Marburg entry inh 10µM*, LASV entry inh inconclusive, StopGo reporter -24.9%, SARS PLpro yeast -2.1%, RE007 growth inh -3.1% and NS1 function inh -5.3%.
For O=C(NNC1=NS(=O)(=O)c2ccccc21)c1ccccc1Cl the results were Marburg entry inh inconclusive, LASV entry inh 2.6%, StopGo reporter 29.7%, SARS PLpro yeast 0.3%, RE007 growth inh 23.5% and NS1 function inh 5.0%.
COc1ccccc1NS(=O)(=O)c1cccc(NC(=O)C2CC(=O)N(Cc3ccccc3)C2)c1 (stereo not given) was read as Marburg entry inh inconclusive, LASV entry inh inconclusive, StopGo reporter -15.4%, SARS PLpro yeast 0.4% and RE007 growth inh 15.7%.
Screening COc1ccc(C2c3[nH]c4ccccc4c3C[C@H]3C(=O)N(C4CCN(Cc5ccccc5)CC4)CC(=O)N23)cc1OC (stereo not given in full) returned StopGo reporter -24.4%, SARS PLpro yeast 0.8%, RE007 growth inh -3.8% and NS1 function inh 4.8%.
`CC(C)C[C@@H](C(=O)O)N(Cc1cccc(CN([C@@H](CC(C)C)C(=O)O)S(C)(=O)=O)c1)S(C)(=O)=O` gave StopGo reporter -17.1%, SARS PLpro yeast 2.3%, RE007 growth inh -12.9% and NS1 function inh 28.7%.
For Cc1cccc(NC(=S)NC(NC(=O)c2ccco2)C(Cl)(Cl)Cl)c1 (stereo not given) the results were Cruzain inh noDet 1.7%, Marburg entry inh inconclusive, LASV entry inh -7.6%, Cruzain Triton 3.16µM*, StopGo reporter -3.1%, SARS PLpro yeast 10.9%, RE007 growth inh -3.1% and NS1 function inh 13.0%.
Cc1cccc(/C=N/NC(=O)CNc2cccc3ccccc23)n1 was read as Cruzain inh noDet 16.2%, Marburg entry inh inconclusive, LASV entry inh -21.9%, Cruzain Triton -5.8%, StopGo reporter -22.4%, SARS PLpro yeast 1.9%, RE007 growth inh -11.2% and NS1 function inh -23.3%.
Screening Cc1cccc(CC(=O)N2CCC(n3nccc3NC(=O)C3CC3)CC2)c1 returned Marburg entry inh 6.5%, LASV entry inh -2.1%, StopGo reporter 1.4%, SARS PLpro yeast -3.7%, RE007 growth inh -8.2% and NS1 function inh 2.2%.
Cc1cc(C)n(C(=O)CNc2ccccc2Cl)n1 was read as Cruzain inh noDet -7.5%, Marburg entry inh 6.4%, LASV entry inh 13.3%, Cruzain Triton -3.5%, StopGo reporter 0.4%, SARS PLpro yeast -7.0%, RE007 growth inh -15.8% and NS1 function inh -5.7%.
`O=C(NC12CC3CC(CC(C3)C1)C2)c1cccnc1` gave Cruzain inh noDet 0.4%, Marburg entry inh -1.5%, LASV entry inh 14.8%, Cruzain Triton 3.0%, StopGo reporter 8.7%, SARS PLpro yeast 2.5%, RE007 growth inh 12.1% and NS1 function inh -3.6%.
`CCN(CC(=O)Nc1ccc(NC(C)=O)cc1)C(=O)/C=C/c1cn(Cc2ccccc2)nc1-c1cccnc1` gave Marburg entry inh -23.3%[46.1 µM], LASV entry inh inconclusive, StopGo reporter 2.1%, SARS PLpro yeast -3.4% and RE007 growth inh 2.3%.
Cc1cc(C(=O)CN2C(=O)C(=O)N(CC(C)C)C2=O)c(C)n1C1CC1 was read as Marburg entry inh inconclusive, LASV entry inh 26.0%, StopGo reporter 10.3%, SARS PLpro yeast 4.2% and RE007 growth inh -4.8%.
For COc1ccccc1OCC(=O)Nc1sc2c(c1C(=O)NCC1CCCO1)CCC2 (stereo not given) the results were Cruzain inh noDet 24.3%, Marburg entry inh inconclusive, LASV entry inh -7.0%, Cruzain Triton -8.7%, SARS PLpro yeast -9.4%, RE007 growth inh 9.4% and NS1 function inh 7.9%.
Screening CCOc1cc(C(=S)N2CCOCC2)ccc1OC(=O)/C=C/c1ccc(OC)c(OC)c1 returned Cruzain inh noDet inconclusive, Marburg entry inh inconclusive, LASV entry inh 6.5%, Cruzain Triton -17.7%, StopGo reporter 0.0%, SARS PLpro yeast 25.4%, RE007 growth inh -5.8% and NS1 function inh 5.4%.
Screening CCn1c(SC)nnc1-c1c[nH]c2ccccc12 returned Cruzain inh noDet -6.3%, Cruzain Triton 1.9%, StopGo reporter 8.5%, SARS PLpro yeast -1.6%, RE007 growth inh 12.0% and NS1 function inh 0.3%.
Cc1nc2cc(C(=O)OCC(=O)N(CC(C)C)C3CCS(=O)(=O)C3)ccc2n1-c1ccccc1 (stereo not given) was read as Cruzain inh noDet inconclusive, Marburg entry inh inconclusive, LASV entry inh -3.1%, Cruzain Triton 2.0%, StopGo reporter 41.6%[activator], SARS PLpro yeast 4.1%, RE007 growth inh -7.8% and NS1 function inh -11.1%.
For Cc1c(Br)c([N+](=O)[O-])nn1CC(=O)NCCc1c[nH]c2ccccc12 the results were Marburg entry inh inconclusive, LASV entry inh -11.8%, StopGo reporter -16.8%, SARS PLpro yeast 0.2% and RE007 growth inh 12.9%.
COc1ccc(/C=C/C(=O)NC(=S)Nc2ccc(N3CCN(C(C)=O)CC3)cc2)cc1 was read as StopGo reporter -11.7%, SARS PLpro yeast -0.2%, RE007 growth inh -27.0% and NS1 function inh 4.2%.
O=C(c1cc(Cl)c(=O)n(Cc2ccc(Cl)cc2)c1)N1CCOCC1 was read as Cruzain inh noDet -2.2%, Marburg entry inh 4.4%, LASV entry inh 21.7%, Cruzain Triton 4.4%, StopGo reporter 3.7%, SARS PLpro yeast 3.9%, RE007 growth inh -9.1% and NS1 function inh -12.2%.
Screening CCN1CCN(c2ccc(NC(=O)c3ccc(C#N)cc3F)cc2Cl)CC1 returned Marburg entry inh -25.3%, LASV entry inh 19.8%, StopGo reporter -6.5%, SARS PLpro yeast 1.3% and RE007 growth inh -5.6%.
For Cc1nccc2[nH]c(=O)c(C(=O)NC3CCCCC3C)cc12 (stereo not given) the results were Cruzain inh noDet 1.9%, Marburg entry inh 12.5%, LASV entry inh -5.4%, Cruzain Triton -2.7%, StopGo reporter -26.1%, SARS PLpro yeast 3.4%, RE007 growth inh -3.3% and NS1 function inh 0.5%.
Screening Cc1nn(C)c(Cl)c1/C=N/OC(=O)c1ccccc1 returned Marburg entry inh inconclusive, LASV entry inh -4.6%[46.1 µM], StopGo reporter -3.1%, SARS PLpro yeast -1.5%, RE007 growth inh -24.4% and NS1 function inh -5.1%.
`CCCn1c(N)c(N(CCOC)C(=O)c2ccc([N+](=O)[O-])c(C)c2)c(=O)[nH]c1=O` gave Marburg entry inh 13.3%[46.1 µM], LASV entry inh 4.7%[46.1 µM], StopGo reporter -8.2%, SARS PLpro yeast 0.9%, RE007 growth inh -3.3% and NS1 function inh inconclusive.

Assay outcomes: PubChem, National Center for Advancing Translational Sciences (NCATS)
